Tgondii IFNg: inhibitors of Toxoplasma gondii growth with IFN-gamma; activity change, negative = inhibition, %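 (about 20 µM by stock and volumes)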; hit rate 3.8% among 69,000; Toxoplasma gondii growth in IFN-gamma-treated host cells; hits give low values; reference of the scale not given here;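 active = below -70%; inconclusive = fit judged invalid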;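 also: host cells are HeLa cells infected with Toxoplasma gondii; parasite growth read as luciferase light; one replicate is shown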
Numbers without * were called inactive; i = inactive; ? = inconclusive; & = joins results of further samples. This is a subset; the hit share may differ from the screen's.

SMILES,Tgondii IFNg
COc1ccc(-c2cn(C(=O)c3ccc(Cl)cc3)nc2C)cc1,-21.7
CCN1c2ccccc2C(=O)NC12CCN(C(=O)NCc1ccc(F)cc1)CC2,-9.3
O=C(c1ccco1)N1CCc2ncc(CNc3ccccn3)n2CC1,5.5
CC(C)Cc1cc(CNC(=O)C2CC(=O)N(C)c3ccccc32)on1 (stereo unspecified),-6.8
O=C(NC1CCCC1)[C@H]1[C@H](CO)[C@H]2Cn3c(cccc3=O)[C@@H]1N2C(=O)CC1CC1,6.6
O=C(c1ccco1)N1CCC(c2nc3ccc(N4CCOCC4)cn3n2)CC1,-6.9
COc1cc(NS(C)(=O)=O)c(OC)cc1Cl,-4.0
O=C(c1ncoc1-c1ccccc1)N1CCOC(c2ccc(Cl)cc2)C1 (stereo unspecified),-40.0
C[C@H](C[C@H](N)C(=O)O)C(=O)O,7.9
COc1ccccc1NC(=O)c1c(O)c2ccccc2n(-c2ccccc2)c1=O,139.7
Cc1nc(=O)[nH]c(C)c1CCC(=O)N1CCCC(Nc2ccccc2)C1 (stereo unspecified),-5.7
CCOC(=O)c1c(NC(=O)CSc2ccccc2)sc(C)c1C,-32.6
CCOCc1nnc(NC(=O)Cn2ccc3ccc(F)cc32)s1,-34.0
CCOC(=O)N1CCCN=C1SC,3.9
CC(C)CCNC(=O)c1nc(Nc2ccccc2)c2ccccc2n1,-46.5
CC(C)(Oc1ccc2c(c1)CCC2)C(=O)N1CCN2C(=O)CNC(=O)C2C1 (stereo unspecified),1.1
FC(F)c1nc2ccccc2n1-c1nc(N2CCOCC2)nc(N2CCOCC2)n1,-27.3
CN(C)c1ncc(-c2nccn2-c2cccc3c2CCC3)cn1,-4.3
COCCN1C(=O)CCc2cc(NC(=O)COc3cccc(C)c3)ccc21,3.9
CCCNC(=O)N(C)C[C@H]1Oc2ncc(C#CC3CCCCC3)cc2C(=O)N([C@H](C)CO)C[C@H]1C,-19.3
O=C1NC(c2ccccc2)(C(F)(F)F)SC(=Nc2ccccc2)N1c1ccccc1 (stereo unspecified),-40.3
CCC(=O)N1C[C@H](O)COC[C@@H]2O[C@@H](CC(=O)NCc3ccc(Oc4ccccc4)cc3)CC[C@H]21,-5.1
CCN1c2cc(C)ccc2-n2cccc2C12CCN(S(=O)(=O)c1cc(Cl)ccc1OC)CC2,-105.8*
CSc1ccc(CN(CCO)C(=O)c2ccc3c(c2)OCO3)cc1,43.3
CN1[C@@H]2c3ccc(-c4cccnc4)c(=O)n3C[C@@H]2[C@@H](CO)[C@@H]1C(=O)N1CCc2ccccc2C1,-3.4
COc1ccc(CN2CCC3(CC2)CCN(c2cnn(C)c2)C3=O)cc1,-1.2
CCn1cc(C(=O)N2CCC3(CC2)N=C(c2csc(C)n2)NC3=O)cn1,3.3
C=CCN1C[C@H]2CN(CC3CCOCC3)CCC[C@@]2(C(=O)OCC)C1,2.4
CN(C)S(=O)(=O)c1ccc(CNC(=O)c2ccc(N3CCCCC3)cc2)cc1,30.2
COc1ccc(C(=O)CSc2nnc(-c3ccoc3)c(-c3ccoc3)n2)cc1,159.3
CCOc1cccc(-c2noc(-c3nnn(Cc4nc(-c5ccccc5OC)oc4C)c3C)n2)c1,11.5
CCc1ccc(S(=O)(=O)Nc2ccc(-c3nc(-c4ccc(C)cc4C)co3)cc2)cc1,-68.3
COc1ccccc1CN(C(=O)CCn1nc(C)c(C)c1C)C1CC1,-8.3
Cc1ccc(N2CC3(CCN(CC4CC4)C3)CC2=O)s1 (stereo unspecified),51.2
CN1C(COCC2CC2)CCC12CCN(S(=O)(=O)N(C)C)CC2 (stereo unspecified),-0.3
Cc1[nH]c2ccc(CNC(=O)CCc3cnccn3)cc2c1C,6.0
COc1cc(OC)cc(C(=O)NCCc2csc(-c3ccc(Cl)cc3)n2)c1,-43.5
CN(Cc1ccc(-n2cccn2)cc1)Cc1cnn(C)c1,8.1
CCOc1ccccc1OCCOc1ccc(F)cc1,-10.4
O=S(=O)(NCc1ccc2c(c1)OCO2)c1ccc2c(c1)OCC2,-10.0
CC(=O)O/N=C1/CC(C)(C)Cc2onc(C)c21,1.5
O=C1NC(c2ccccc2)=N[C@@]12CC[C@H]1CN(Cc3ccoc3)C[C@H]12,40.3
O=C(N[C@@H]1C=C[C@@H](CC(=O)N2CCC(Cc3ccccc3)CC2)O[C@@H]1CO)c1cnccn1,-4.6
CC(C)N1C[C@H]2CN(Cc3nccs3)CCC[C@@]2(C(=O)O)C1,-8.8
Cc1ccnc(N2CCC(Cc3cccc(C(N)=O)c3)C2)n1 (stereo unspecified),-9.0
CS(=O)(=O)N1CCC(Cn2cc(C(=O)O)cn2)CC1,-54.6
CCOc1ccc(-c2cc3c(=O)n(Cc4nc(-c5ccccc5C)oc4C)ccn3n2)cc1,37.3
CC1=C(C(=O)NCc2ccccc2Br)C2(CCN(S(C)(=O)=O)CC2)OC1=O,30.5
O=S(=O)(NCc1ccccc1)Nc1ccccc1-n1cccn1,4.5
C[C@@H]1CN([C@H](C)CO)C(=O)Cc2cc(NC(=O)CCN3CCOCC3)ccc2O[C@H]1CN(C)Cc1ccc(C(=O)O)cc1,-0.1

The final three records of the section above come first, to join the parts.
SMILES,Tgondii IFNg
CC1=C(C(=O)NCc2ccccc2Br)C2(CCN(S(C)(=O)=O)CC2)OC1=O,30.5
O=S(=O)(NCc1ccccc1)Nc1ccccc1-n1cccn1,4.5
C[C@@H]1CN([C@H](C)CO)C(=O)Cc2cc(NC(=O)CCN3CCOCC3)ccc2O[C@H]1CN(C)Cc1ccc(C(=O)O)cc1,-0.1
Cc1nc(N(C)C)nc(-c2cccc(C(=O)O)c2)c1C,?
COCCCN(Cc1cccs1)S(=O)(=O)c1ccc2[nH]c(=O)ccc2c1,i
COc1cc(C=O)c([N+](=O)[O-])cc1OC,11.1
CC(C)NC(=O)Cn1c(=O)cc(-c2nc(C3CC3)no2)c2ccccc21,-31.4
CC(NC(=O)CN1CCCCCC1)c1ccccc1 (stereo unspecified),-49.7
CCCN1CCn2cc(C(=O)N3CCN(c4cccc(OC)c4)CC3)nc2C1,15.0
Cn1ncc2c(N3CCC(N4CCCC4)CC3)nc(-c3cccnc3)nc21,-20.9
Cc1ccc(S(=O)(=O)N2CCC3(CC2)NCCN=C3NCc2cccc(F)c2)cc1C,5.0
CC(C)(C)N1CCC(c2ccccc2)(c2ccccc2)CC1,19.4
O=C(c1ccc(-c2cncnc2)nc1)N1CCCC(c2ccccc2)CC1 (stereo unspecified),-29.1
Nc1ccc2cc3ccc(N)cc3nc2c1,-56.8
CCn1cnnc1CCNc1cc(OC)ncn1,10.2
C[C@@H]1CN([C@H](C)CO)C(=O)CCCn2nncc2CO[C@@H]1CN(C)C(=O)Nc1ccc(-c2cccs2)cc1,270.3
O=C(c1ccc[nH]1)N1CCC2(CC1)OCCNc1ccccc12,-9.2
Cc1c(CN(C)C(=O)c2cccc(C#CC(C)(C)O)c2)cnn1C,-1.0
Cc1cc(O)cc(=O)n1CCC(=O)Nc1cccc(Cl)c1N1CCOCC1,-9.0
Cc1cccc(NC(=O)N2CCN(Cc3nc(-c4ccccc4C)oc3C)CC2)c1,-48.6
N#Cc1c(-c2cccnc2)[nH]c(=S)[nH]c1=O,-1.4
Cc1ccc(CN2C[C@H]3[C@H](N4CCOCC4)c4ccccc4[C@@H]3C2)o1,-2.3
CCC(=O)N[C@H]1CC[C@@H](CC(=O)NCc2ccccc2F)O[C@@H]1CO,-35.8

Sorted by formula weight (rising): 5 of the compounds above
SMILES,Tgondii IFNg
N#Cc1c(-c2cccnc2)[nH]c(=S)[nH]c1=O,-1.4
Cc1c(CN(C)C(=O)c2cccc(C#CC(C)(C)O)c2)cnn1C,-1.0
Cc1ccc(CN2C[C@H]3[C@H](N4CCOCC4)c4ccccc4[C@@H]3C2)o1,-2.3
CCC(=O)N[C@H]1CC[C@@H](CC(=O)NCc2ccccc2F)O[C@@H]1CO,-35.8
C[C@@H]1CN([C@H](C)CO)C(=O)CCCn2nncc2CO[C@@H]1CN(C)C(=O)Nc1ccc(-c2cccs2)cc1,270.3

Next section
smiles | Tgondii IFNg
CNC1(c2nnnn2CCOC(=O)Nc2ccc(Cl)cc2)CCCC1 | 93.6
O=c1[nH]c2ccccc2c(O)c1-c1nc(-c2ccc(F)c(Br)c2)no1 | -13.9
CNC(=S)N1N=C(c2c(-c3ccccc3)c3cc(Cl)ccc3[nH]c2=O)CC1c1ccc(N(C)C)cc1 (stereo unspecified) | 128.0
Cn1ccnc1-c1nccn1Cc1ccncc1 | 3.4
Cc1oc(C2CCN(C(=O)c3ccsc3)CC2)nc1C(=O)N1CCCCC1 | -13.0
CC1C(=O)N(C)CCN1C(=O)c1cn[nH]c1-c1cccc(F)c1 (stereo unspecified) | 2.2
COC(=O)C1(Cc2ccccc2-c2c[nH]c3ccccc23)CCOCC1 | 8.0
CCn1cc(C(=O)Nc2ccc(NC(=O)c3ccc(C)o3)cc2)c(C)n1 | -9.6
Cc1nccn1CC1CCCN(Cc2ccc3cccc(F)c3n2)C1 (stereo unspecified) | -4.9
CC(C)NC(=O)N1C[C@H]2CN(CCN(C)C)C(=O)[C@@H]2C1 | 61.0
Cc1noc(C)c1NC(=O)c1cccc(CN2CC[C@@H]3CCCC[C@H]3C2)c1 | 2.3
CCN(CC)S(=O)(=O)c1ccc(-c2cn3cc(Cl)ccc3n2)cc1 | -67.6
CCc1cc2c(=O)c(-c3nc4ccccc4n3C)coc2c(CN2CCN(C)CC2)c1O | 0.4
Cc1cc(C)cc(NC(=O)C(=O)NCCc2sc(-c3ccc(Cl)cc3)nc2C)c1 | -39.7
CCOCC1CN(Cc2nccs2)Cc2ccnn2C1 (stereo unspecified) | 1.7
Cc1cccn2c(CC(=O)NCCS(=O)(=O)N3CCCC3)cnc12 | -7.1
C=C(C)[C@@H]1CC[C@]2(C(=O)O)CC[C@]3(C)[C@H](CC[C@@H]4[C@@]5(C)CC[C@H](O)C(C)(C)[C@@H]5CC[C@]43C)[C@@H]12 | -35.4&-65.3
CCOC(=O)c1[nH]ncc1CN1CCCn2cncc2C1 | -1.0
CC(C)[C@@H]1CC=CC[C@@H](C)Oc2ccccc2C(=O)N(C)[C@H](Cc2ccccc2)C(=O)N1 (mixture of isomers) | -38.3
O=C(NC1CC1)N1CCC2(CC(Nc3ncccc3F)CO2)C1 (stereo unspecified) | -3.9
CCc1nccn1CCCNC1CCSC1 (stereo unspecified) | -3.1
COCCN1C(=O)CCc2cc(NC(=O)CC(C)(C)C)ccc21 | 3.6
CCn1c(C)cc(C)c(C(=O)N2CCOC(c3ccc(Cl)cc3)C2)c1=O (stereo unspecified) | 6.0
Cc1nc(CN2C[C@@H]3CN(C(=O)C4CC4)C[C@H]3C2=O)cs1 | -1.8
Cc1ccc(C2(O)CCN(C(=O)c3cccc(-c4cn[nH]c4)c3)CC2)nc1 | -0.1
COc1cc2c(cc1OC)CN(CC(=O)NCCn1ccnc1)CC2 | 0.8
Cc1n[nH]c(C)c1C12CC3CC(CC(CC(=O)O)(C3)C1)C2 | -13.4
COc1cc2c(cc1CN(C)Cc1snnc1C)CCC2 | -15.5
C=CCN1CCN(c2nc3ccccc3nc2C#N)CC1 | -30.6&-4.3
O=C(c1ccccc1Br)N1CCc2c([nH]c3ccccc23)C1c1ccc(F)cc1 (stereo unspecified) | 46.8
CN(C)C(=O)c1ccc(-c2cccc(-c3nc(C(=O)NC4CCCCC4)cc4c3[C@H](CCO)N([S@@](=O)C(C)(C)C)C4)c2)cc1 | -47.6
CN(C)CCOc1ccc(/C(=C(/CCCl)c2ccccc2)c2ccccc2)cc1 | -88.5*
Cc1c(C(=O)N2CCc3ccccc3C2)oc2ccc3c(c12)C(=O)CC1(CCCCC1)O3 | -21.9
CC(C)N(Cc1ccccc1)C(=O)CN1C(=O)CCc2cc(S(=O)(=O)N3CCCCC3C)ccc21 (stereo unspecified) | -41.0
CC(C)c1cc(C(=O)N2CCCC(CCc3ccc(F)cc3)C2)on1 (stereo unspecified) | -28.5
CO[C@H]1CN(C)C(=O)c2cc(NC(=O)Nc3cccc(Cl)c3)ccc2OC[C@H](C)N(C(=O)Nc2c(C)noc2C)C[C@@H]1C | 54.0
COc1cc(Cl)cc2cc(C(=O)NCc3cccnc3N(C)C)oc12 | -11.1
COc1ccc2c(c1)NC1(CCN(C(=O)Nc3ccc4c(c3)OCCO4)CC1)c1cccn1-2 | i
Cc1nc(-c2ccc(F)cc2)sc1CCNC(=O)c1ccccc1C(F)(F)F | 21.0
COCC(=O)N1CC2(C1)[C@@H](c1ccccc1)[C@@H](CO)N2CCC(F)(F)F | 14.4
OC(CCl)CN1CC[N+]2(CC1)CC[N+]1(CCN(CC(O)CCl)CC1)CC2 (stereo unspecified) | 9.9
CC(=O)Nc1cccc2c(C(=O)N3CCC(N4CCCCC4)CC3)ccnc12 | 18.7
COCCC(=O)c1cc2c(s1)CCN2Cc1cccnc1 | -53.0
CC(C)(C)c1cc(CN(Cc2cccnc2)Cc2ccc3c(c2)OCO3)[nH]n1 | -26.9
CSc1nc2nccc(NC(=O)c3cccc(C)c3)n2n1 | -4.1
CCCCN(C(=O)c1ccc(C)cc1)C1(C(=O)NCc2ccccc2)CCN(C(C)=O)CC1 | 63.5
CC(C)c1ncc(C(=O)N2CCCC(Nc3ccc4c(c3)OCO4)C2)c(=O)[nH]1 (stereo unspecified) | 90.2
CNS(=O)(=O)c1ccc(CCc2nc(CCc3ccccc3)n[nH]2)cc1 | -3.0
O=C(c1cnccn1)N1CCO[C@H]2CCN(Cc3ccccc3F)C[C@H]21 | 1.2
COc1cc(F)ccc1-c1ccccc1NC(=O)CN | -1.4
COCC1CN(CC2CC2)Cc2cnn(C)c21 (stereo unspecified) | 45.3
CC1=NOC(C)(C(=O)N2CCCn3cncc3C2)C1 (stereo unspecified) | -16.7
CC(=O)c1c(C)cc2cc(C)cc(O)c2c1O | 77.5
O=C(CN1CCOCC1)N1CCCCN2[C@H](CO)[C@H](c3ccc(Br)cc3)[C@H]2C1 | -32.6
CC1CCCN(Cc2ccc(C(=O)Nc3c4c(nn3C)CCC4)cc2)C1 (stereo unspecified) | -2.0
Cc1cccn2cc(C(=O)Nc3cnn(CC(=O)NCCc4ccccc4F)c3)nc12 | 14.4
COc1ccc(CN2C[C@H]3CN(C(=O)NC4CC4)C[C@H]3C2=O)cc1 | -64.5
